# Compound activity: PubChem BioAssay, several laboratories
# HNF4A DNA FP – change in binding of human HNF4A to DNA, primary screen, biochemical, fluorescence polarization, FITC-DNA; AID 1224865, 2016; 360,000 tested, 0.3% active; 1 h; activity change, % at 10 µM; in the data active = activity change above about 30%, passing the limit was not always enough;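 note: controls were the assay level and a saturating level of protein; the project sought stronger binding though the title names inhibitors; some compounds called inactive have numbers as strong as hits; positive values seem to mean higher polarization but the record does not say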
# Target sequence (P41235 whole entry, looked up): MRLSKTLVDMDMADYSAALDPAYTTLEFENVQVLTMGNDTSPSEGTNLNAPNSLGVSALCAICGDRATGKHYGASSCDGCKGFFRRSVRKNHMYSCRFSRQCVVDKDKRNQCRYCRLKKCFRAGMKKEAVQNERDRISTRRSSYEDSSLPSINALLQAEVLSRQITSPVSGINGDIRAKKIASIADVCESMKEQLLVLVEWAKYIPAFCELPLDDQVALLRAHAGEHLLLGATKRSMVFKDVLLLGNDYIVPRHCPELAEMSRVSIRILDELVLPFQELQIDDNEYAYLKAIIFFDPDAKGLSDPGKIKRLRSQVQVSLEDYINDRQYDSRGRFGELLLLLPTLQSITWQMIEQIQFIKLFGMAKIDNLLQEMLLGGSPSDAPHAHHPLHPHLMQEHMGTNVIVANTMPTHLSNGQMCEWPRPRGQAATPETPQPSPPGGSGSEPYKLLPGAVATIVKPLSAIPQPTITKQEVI
# LANA-H2A inh – blockers of LANA interaction with H2A/H2B – biochemical, FP readout, HTS, primary screen | cell-free LANA-H2A/H2B peptide, fluorescence polarization | inhibition, % (test concentration not listed) | 320,000 tested, 0.6% active | AID 2629, 2010; in the data active = inhibition mostly above about 10%, no sharp cut-off; inactive = mostly below about 6.7%;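 note: stock transfer was 7.5 nL into about 10 µL; 0% = median of vehicle wells and 100% = median of positive control wells; one replicate is shown; the record names a cut of 25% in any replicate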
# FGF22 binding – binders of human FGF22 protein, primary screen, FGF22 synaptogenesis inhibitor project, biophysical, thermal shift, single point; 340,000 tested, 1.5% active; calls only at 9.99 µM; recombinant FGF22 thermal shift, SYPRO orange fluorescence; percent of sucrose octasulfate shift, DMSO zero; AID 651658, 2012;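 active = melting point raised past a set limit in the mean and every replicate; three in four hits are not shown here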
# E coli growth – E. coli growth inhibition, primary screen, OD600 | OD600 absorbance (test concentration not listed) | Escherichia coli growth, 23 h; active compounds read low | AID 1053175, 2014 | 330,000 tested, 0.21% active;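 active = OD600 absorbance below the run mean of sample wells minus 3.6 SD, in any replicate, cut at about 0.56 in these data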;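 note: stock transfer was 300 nL into about 60 µL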
# UCH37 DUB inh – inhibitors of human UCH37 deubiquitinase, primary screen, biochemical, Ub-AMC cleavage, fluorescence | Ubiquitin carboxyl-terminal hydrolase isozyme L5 (Homo sapiens), Q9Y5K5 | purified proteasome/UCH37 | inhibition, % (no concentration beside the values) | 330,000 tested, 0.33% active;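 active = mean of two replicates above 20%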;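 note: 0% = compound-free wells with enzyme and 100% = wells lacking proteasome; stock transfer was 100 nL into about 20 µL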
# Target sequence (Q9Y5K5 whole entry, looked up): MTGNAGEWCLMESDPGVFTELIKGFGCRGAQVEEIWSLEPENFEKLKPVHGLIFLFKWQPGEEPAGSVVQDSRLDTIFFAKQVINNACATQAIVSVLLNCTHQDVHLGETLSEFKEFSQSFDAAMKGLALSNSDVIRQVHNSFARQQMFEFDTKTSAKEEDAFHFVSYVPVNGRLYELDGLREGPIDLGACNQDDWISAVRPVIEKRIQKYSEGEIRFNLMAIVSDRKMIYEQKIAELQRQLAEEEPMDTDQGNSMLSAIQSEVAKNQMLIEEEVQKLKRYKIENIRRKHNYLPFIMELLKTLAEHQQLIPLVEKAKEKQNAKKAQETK
#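 Material: human UCH37 enzyme supplied as purified proteasome complex / Amount: 0.15 nM proteasome as dispensed / Buffer or medium: pH 7.4 Tris-HCl (50 mM) with ovalbumin, ATP-MgCl2, DTT / Times: preincubation 30 min, reaction 25 min, room temperature / Technique: AMC fluorescence from Ub-AMC cleavage, excitation 355 nm, emission 460 nm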
# Beta2AR agonist – beta2AR agonists driving receptor internalization, primary screen, cell-based, FAP fluorogen, flow cytometry | Beta-2 adrenergic receptor (Homo sapiens), P07550 | Am2.2-beta2AR cells; reference of the scale not given here | response, % (concentration not given with the values) | 340,000 tested, 0.43% active;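 active = response above a set limit, near 3 SD of response in nonfluorescent compounds, cut at about 42% in these data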;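 note: stock transfer was 100 nL into about 11 µL; a reference agonist was the positive control; negative values mostly stem from fluorescent compounds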
# ALR H2O2 inh – inhibitors of human ALR sulfhydryl oxidase, primary screen, biochemical, H2O2 detection, HRP-luminol luminescence, single point; FAD-linked sulfhydryl oxidase ALR (Homo sapiens), P55789; purified ALR, DTT oxidation; inhibition, % (no concentration beside the values); 290,000 tested, 3.8% active; AID 485317, 2010;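 active = mean and each replicate at 75% or more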;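 note: stock transfer was 7.5 nL into about 7.5 µL; 0% = neutral wells and 100% = wells with inactivated enzyme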
# Target sequence (P55789 whole entry, looked up): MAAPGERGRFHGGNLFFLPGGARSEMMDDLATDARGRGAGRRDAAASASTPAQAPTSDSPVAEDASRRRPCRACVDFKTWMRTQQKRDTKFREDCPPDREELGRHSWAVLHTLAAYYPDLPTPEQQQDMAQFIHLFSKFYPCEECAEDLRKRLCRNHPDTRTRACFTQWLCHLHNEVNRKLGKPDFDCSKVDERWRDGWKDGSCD
# Starred values were filed as active, the others as inactive; i = inactive; x = not tested or not shown.
smiles,ALR H2O2 inh,E coli growth,UCH37 DUB inh,HNF4A DNA FP,FGF22 binding,Beta2AR agonist,LANA-H2A inh
CCOc1ccccc1C(=O)N[C@H](C(=O)Nc1nc2c(s1)CCCC2)C(C)C,-8.0,0.692,-1.0,-0.1,i,-4.1,6.1
CCOC(=O)c1oc2cccc(O)c2c1CN1CCOCC1,18.4,0.669,8.0,2.0,x,2.2,-4.7
Cc1ccc(S(=O)(=O)CCc2nnc(NC(=O)C3CCCCC3)s2)cc1,-2.5,0.734,4.3,-1.7,i,-5.7,-2.2
C=Cc1ccc(C(=O)NC2CCCN(Cc3ccccc3F)C2)cc1 (centres undefined),-11.2,0.605,0.9,-2.5,i,8.7,1.0
O=C(COC(=O)c1ccccc1OCC(=O)Nc1ccc(Br)cc1)Nc1ccccc1,10.3,0.701,3.5,2.0,i,8.9,-3.0
CCC1(CC)NC(=O)N(CC(=O)OCC(=O)Nc2ccccc2[N+](=O)[O-])C1=O,-6.0,0.691,3.8,3.8,i,4.2,3.8
Cc1cc(=O)oc2cc(NC(=O)c3c(Cl)cnn3C)ccc12,0.2,0.728,-93.5,-3.8,i,6.2,1.2
Cc1sc2nc(SCC(=O)N(C)C)[nH]c(=O)c2c1C,6.7,0.767,2.6,6.3,x,2.3,-1.7
CCOC(=O)N1CCC(N(CCN(C)C)C(=S)Nc2cc(C)ccc2C)CC1,0.4,0.735,0.9,-1.6,x,-1.3,3.6
CCOc1ccccc1N=NC1C(=O)N(C(N)=S)N=C1C (centres undefined),-7.9,0.646,6.8,-15.4,i,-1.5,-6.6
Cc1ccc2nc(C3CCN(CC(=O)N4CCCCCC4)CC3)[nH]c2c1,-6.8,0.713,2.5,-0.4,x,-2.3,0.9
COc1ccc(NC(=O)C2=CC(c3cccs3)=NS(=O)(=O)N2C)cc1,-3.1,0.683,6.2,-5.8,i,-1.7,-6.5
COc1ccccc1N1CCN(CCC(=O)Nc2ccc(F)cc2)CC1,9.5,0.646,-1.9,-0.8,i,-3.6,-0.9
CCOc1ccc(OCC)c(NC(=O)CN(C)S(=O)(=O)c2cccc3nsnc23)c1,-6.3,0.704,6.7,-2.8,x,-1.9,1.2
CC(/C=N/NC(=O)c1ccccc1F)=C\c1ccccc1,10.0,x,x,-5.7,i,-6.3,1.4
COc1ccc(CN2CCN(S(=O)(=O)c3ccc(NC(C)=O)cc3)CC2)c(OC)c1OC,x,0.629,-2.5,1.1,i,3.0,-0.7
O=C(CN1C(=O)NC2(CCCC2)C1=O)N1CCN(c2ccccc2Cl)CC1,0.2,0.68,2.5,-0.8,i,11.4,-3.4
Cc1ccc(Oc2cc([N+](=O)[O-])cc3c2C(=O)Nc2ccccc2O3)cc1,-1.7,0.726,4.9,4.4,x,-67.0,-3.4
O=C1OC(c2ccc(O)cc2)(c2ccccc2O)c2ccccc21 (centres undefined),x,0.623,2.3,0.4,i,14.5,x
CC(=O)c1cccc(NC(=S)NCCC2=CCCCC2)c1,0.6,0.689,0.9,-1.6,x,-5.1,-1.5
O=C(Nc1ccnn1C1CCN(Cc2ccccc2)CC1)c1ccccc1Cl,-1.1,0.654,0.8,0.2,i,3.2,6.1
Cc1cc(OCC(O)CNC(C)(C)C)ccc1Cl (centres undefined),-8.3,0.66,4.7,-2.7,i,-3.9,-4.2
NC(=O)c1ccc(-c2csnn2)cc1,-11.4,0.664,-2.9,-4.3,i,-0.6,5.7
Cn1c(CC(=O)Nc2ccc(F)cc2)nnc1SCC(=O)NC1CCCCC1,x,0.651,-1.7,0.5,i,4.7,-5.8
Nc1cccnc1Sc1ccc(Cl)cc1,0.4,0.717,-4.1,-3.2,x,-0.3,4.5
CN(C)c1cc[n+](CC[n+]2ccc(N(C)C)cc2)cc1,x,0.69,-0.2,-3.1,i,1.2,0.2
COc1cc(S(=O)(=O)n2nc(C)cc2C)ccc1Cl,4.3,0.7,1.0,-0.6,i,-4.6,0.5
O=C(c1cccc(F)c1)N1CCCC(C(=O)N2CCCCC2)C1 (centres undefined),0.8,0.728,1.1,3.6,i,7.8,3.6
COC(=O)c1ccc(COc2ncnc3sccc23)cc1,9.9,0.675,0.6,3.4,i,-2.4,-2.2
COc1cccc(NC(=O)Nc2cc(C(=O)NCC3CCCO3)ccc2N2CC3CC(C2)c2cccc(=O)n2C3)c1 (centres undefined),-2.9,0.7,3.1,3.6,i,7.0,-5.0
O=C1c2ccccc2C(=O)N1CCN1CCCCC1,x,0.734,1.5,-1.1,x,0.1,x
CC1(C)CC(=O)C=C(NCCc2c[nH]c3ccccc23)C1,26.2,0.654,5.1,-0.7,i,1.6,2.6
O=C(NC1CCCCC1)C1CCCN1C(=O)Nc1ccccc1 (centres undefined),1.9,0.686,-1.1,5.3,i,-4.6,0.3
O=C(NC1CCCCC1)c1cccc(Cn2cc(Cl)cn2)c1,-4.9,0.724,-1.8,0.9,x,-3.6,0.7
O=C1CCC(c2ccccc2)N1C(=O)c1cccnc1 (centres undefined),4.6,0.707,5.0,-2.9,i,5.2,-4.7
O=C(C1CC1)N1N=C2CCCCC2C1(O)C(F)(F)F (centres undefined),1.9,0.685,0.2,-1.8,i,7.0,2.7
COC(CNC(=O)c1c[nH]c2ccc(S(=O)(=O)N3CCOCC3)cc2c1=O)OC,-10.8,0.66,-17.6,1.2,i,6.6,1.5
O=C1c2ccccc2C(=O)c2c1cccc2N(CCO)CCO,-36.7,x,x,-20.6,i,-2.4,9.2
COc1ccc(OC)c(NC(=O)CSc2nnc(Cc3cccn3C)n2-c2ccc(F)cc2)c1,11.4,0.696,-2.8,-3.9,i,-6.0,4.3
Cc1ccc(-c2cc(C(=O)NCC3CCCO3)c3ccccc3n2)cc1C (centres undefined),x,0.702,-1.8,3.0,i,-1.7,-5.0
O=[N+]([O-])c1cccnc1N1CCN(c2ccc(F)cc2)CC1,98.4*,0.706,4.9,0.7,i,-0.1,0.6
N#Cc1ccccc1OCC(=O)NNC(=O)CNC(=O)c1ccc(Br)o1,-1.0,0.72,3.6,-4.5,i,-3.8,0.6
COc1ccc2c(c1)C(NC(=O)C(F)(F)F)CC2=O (centres undefined),5.8,0.703,3.9,2.7,x,-4.0,-3.8
Cc1onc(-c2ccccc2Cl)c1C(=O)Nc1cccnc1,-5.8,0.703,2.2,-1.6,x,-2.9,-1.8
Cc1nn(C)c(C(=O)NC(=S)Nc2ccc([N+](=O)[O-])cc2)c1Cl,x,0.696,6.2,0.2,i,13.8,x
Cc1ccccc1N=C1NC(=O)CS1,-13.5,0.724,5.5,-2.0,x,0.3,-1.6
COc1ccccc1NS(=O)(=O)CC12CCC(CC1=O)C2(C)C (centres undefined),1.2,0.711,1.7,-3.6,x,-2.3,0.9
COc1cccc2[nH]c3c(N4CCc5ccccc5C4)ncnc3c12,-3.1,0.578,-33.5,x,x,x,-7.3
Cc1ccc(OC(C)C(=O)N/N=C/c2ccccn2)cc1 (centres undefined),-4.2,x,x,3.7,i,24.8,2.9
Cc1ccc(OCC(=O)Nc2ccc(F)cc2)cc1C,x,0.654,0.6,-6.7,i,-2.6,2.7
C=CCOc1ccc(C2C(C(=O)c3ccco3)=C(O)C(=O)N2Cc2cccnc2)cc1 (centres undefined),5.1,0.664,5.0,-5.0,x,1.7,0.3
Cc1ccc(NC(=O)COC(=O)/C(=C/c2cccs2)c2cccs2)cc1S(=O)(=O)N(C)C,-7.7,0.767,0.4,1.8,i,-12.4,1.4
Cc1ccc(S(=O)(=O)N2CCCCC2)cc1NC(=O)Nc1ccc(Cl)cc1Cl,-4.6,0.665,1.4,5.6,i,-3.5,2.0
CCN(CC(=O)Nc1ccc(NC(C)=O)cc1)C(=O)CCCSc1nc2ccccc2[nH]1,-7.1,0.601,0.8,-1.2,i,-1.8,0.9
COc1ccc(-c2nnc3ccc(SCC(=O)N4CCCC4)nn23)cc1,13.1,0.713,3.6,0.9,i,-19.3,-1.8
C=CCn1c(/N=C/c2ccc(OC)cc2)nc2ccccc21,-4.3,x,x,1.9,x,1.1,2.3
O=C(Nc1cccnc1Cl)c1ccc(Cl)cc1,-3.0,0.658,0.4,3.1,i,-5.4,0.6
O=[N+]([O-])c1cc(S(=O)(=O)N2CCCCC2)ccc1NCCN1CCOCC1,-15.4,0.72,1.5,-2.1,i,1.6,2.5
Cc1onc(-c2ccccc2Cl)c1-c1nc(-c2ccccn2)no1,0.4,x,x,-1.2,x,-22.1,-0.6
COc1ccc(CC(=O)NCCS(=O)(=O)N2CCN(c3ccccc3)CC2)cc1,-3.9,x,x,0.8,x,-1.7,-3.2

# (list continues)
smiles,ALR H2O2 inh,E coli growth,UCH37 DUB inh,HNF4A DNA FP,FGF22 binding,Beta2AR agonist,LANA-H2A inh
FC(F)(F)c1cnc(-c2cnc3c(-c4ccc(Cl)cc4)cnn3c2)c(Cl)c1,-1.0,0.713,0.7,-1.4,x,-5.1,-1.1
CC1=NNC(=O)C1C(c1ccc(F)cc1)C(C#N)C#N (centres undefined),30.1,0.734,4.2,0.3,x,7.8,-0.1
CCOc1ccc2oc(C(=O)NCC3CCCO3)c(C)c2c1 (centres undefined),1.8,0.71,-26.0,3.2,i,-2.5,-1.8
O=C(c1ccc(N2C(=O)C3CC=C(Cl)CC3C2=O)cc1)N1CCCCC1 (centres undefined),-3.0,0.686,2.4,0.3,x,1.8,1.3
COc1cccc(C(=O)Nc2nc(SCc3ccc(Cl)cc3)n[nH]2)c1,-9.6,0.721,-2.0,3.9,i,1.0,4.9
COc1ccc2c(CC(=O)OCC(=O)Nc3cccc(C)c3)coc2c1,x,0.708,3.5,-2.6,i,23.2,x
O=C(NCc1ccccc1)c1ccc(=O)[nH]n1,-3.4,0.724,5.8,1.0,x,-1.1,5.0
Cc1ccc(CN(C(=O)N2CCN(C)CC2)S(=O)(=O)c2ccc(C)cc2)cc1,-9.0,0.69,-1.0,3.5,i,-2.6,-0.7
COc1ccc(-n2c(=O)c3ccccc3n(CC(=O)NCc3ccco3)c2=O)cc1,3.5,0.66,1.8,-1.7,i,-5.7,-2.4
Cc1ccc([C@H]2C(C(=O)O)=CC[C@@H](c3cccs3)N2S(=O)(=O)c2ccc(C)cc2)cc1,x,0.679,0.0,1.8,i,8.9,-2.8
COc1ccccc1-c1nnc(NC(=O)c2ccc(S(=O)(=O)N3CCOCC3)cc2)o1,13.0,x,x,2.9,i,10.0,0.0
C#CCO[C@@H]1C[C@H](n2cnc3c(NC(=O)c4ccccc4)ncnc32)O[C@@H]1CO,-0.3,x,0.7,-0.8,i,4.0,-1.1
CC(NC(=O)C1CCC(C(=O)NC(C)c2ccccc2)CC1)c1ccccc1 (centres undefined),-6.0,0.69,3.6,-4.0,i,4.5,2.4
CCN(CC)CCNC(=O)c1ccc(NC(=O)Cc2ccccc2F)cc1,x,0.72,0.0,-0.3,i,2.6,-2.1
O=C(c1ccc(Cl)c(S(=O)(=O)N2CCOCC2)c1)N1CCCCCC1,-5.3,0.683,0.5,-1.1,i,-4.0,2.2
CC(C)OC(=O)CC(=O)CSc1nc2c(cc1C#N)CCCCCC2,-5.0,0.686,-111.4,1.2,x,1.4,3.0

# These rows are one share of the data; the hit share may differ from the screen's.
